Compound activity: PubChem, Fisher Drug Discovery Resource Center
NPYLR7 ag: mosquito NPYLR7 agonism | HEK293T NPYLR7/Galpha15, GCaMP6s calcium fluorescence | activation, % at 10 µM | 0.15% of 270,000 active; in the data active = activation above about 40%;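 also: 0% = vehicle and 100% = reference agonist at the receptor; some compounds past the cut are filed as inactive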
NPYLR7 ag max-min: second read-out of NPYLR7 ag, no call of its own (marks repeat the call); activation, %; measured here: Max-Min RFU normalised activation; some inactives read as strong as hits;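 span of the calcium signal over five minutes; 0% = vehicle and 100% = native peptide agonist; compound fluorescence can raise it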
The depositor's hits bear a star; & = joins results of further samples. The list is partial; rates above refer to the full screens.

Value order: NPYLR7 ag | NPYLR7 ag max-min
> O=C(Cn1cncn1)N1CCC2(CCCN(Cc3ccccc3F)C2)C1 (centres undefined)
  16 | 3
> COc1ccc(NC(=O)C2CCN(C(=O)[C@@H]3CCCN3C(=O)Nc3c(C)cccc3C(C)(C)C)CC2)cc1
  -1 | 8
> O=C(CSc1nnc(Cn2ccc(=O)[nH]c2=O)o1)NCc1ccc(F)cc1
  -5 | 4
> CCOC(=O)c1ccc(NCN2C(=O)c3ccccc3C2=O)cc1
  -19 | -20
> O=c1ccn(Cc2cccc(Br)c2)c(=O)[nH]1
  -2 | -3
> CC(C(=O)Nc1ncccn1)N1CCN(S(=O)(=O)c2cccnc2)CC1 (centres undefined)
  9 | 6
> COCc1ncc(CN2CCC(Cc3cccc(C(=O)O)c3)C2)cn1 (centres undefined)
  15 | 12
> CNS(=O)(=O)c1ccc(CN2CC3(CCNCC3)CC2C(=O)O)cc1 (centres undefined)
  6 | 6
> O=C(CCn1cnc2ccccc2c1=O)NCc1cnn2ccccc12
  -4 | -9
> Cc1cnc(-c2ccc(S(C)(=O)=O)cc2)c(Cl)c1
  4 | 2
> CC(C)C(=O)Nc1c(-c2cccc(F)c2)nc2ccccn12
  -6 | 0
> c1ccc(-c2nnc(Nc3ccccn3)c3ccccc23)cc1
  2 | 1
> NC(N)=NN=Cc1ccccc1C(F)(F)F
  17 | 9
> COc1ccc(S(=O)(=O)N2CCCC(C(=O)NC3CCCC[C@H]3NC(=O)c3ccccc3C)C2)cc1 (some centres undefined)
  1 | 9
> O=C(O)CCC(=O)Nc1sc2c(c1C(=O)Nc1ccccc1)CCCC2
  -2 | -3

Value order: NPYLR7 ag | NPYLR7 ag max-min
> CCCc1cnc(C)nc1NCc1cnn2ccccc12
  5 | 3
> NC(=O)c1cc2cc(Cl)ccc2oc1=Nc1ccccc1F
  -3 | -7
> CC(C)NC(=O)Cn1c(-c2nnc(C(C)C)o2)cc2ccccc21
  -2 | -2
> COc1cccc([C@@H](C)NC(=O)c2ccc(-c3cc(-c4cccc5ccccc45)[nH]n3)cc2)c1
  -1 | 8
> Cc1oc2nc3c(c(=O)n(CCN4CCCCC4)c(=O)n3C)n2c1C
  0 | 0
> CCc1ccc(NC(=O)Nc2ccc(N3CCCC3)c(C(=O)NCc3ccc(F)cc3)c2)cc1
  -6 | -2
> Cc1cc2nn(-c3ccc(Cl)cc3)nc2cc1NC(=O)c1cc(-n2cnnc2)ccc1Cl
  10 | -1
> O=[N+]([O-])c1cccnc1Oc1ccc(Cl)cc1Cl
  2 | -4
> CSc1ccc(C(=O)CCC(=O)NCc2ccc(NC(=O)NC(C)C)cc2)cc1
  -10 | -15
> Cc1ccc(C(=O)Nc2ccc3c(c2)C(=O)N(C)C3=O)c(C)c1
  -2 | -4
> Cc1ccc(-n2ncc3c(=O)n(NC(=O)c4cc5ccccc5oc4=O)cnc32)cc1C
  13 | 9
> Cc1cc(S(=O)(=O)N(C)C)cc(NS(=O)(=O)c2cc(Cl)sc2Cl)c1C
  4 | 1
> COCCN(CC(=O)N(CCc1ccc(OC)c(OC)c1)Cc1ccc(C)o1)S(=O)(=O)c1ccc(Cl)cc1
  -1 | 0
> COC(=O)c1scc(-c2ccccc2)c1S(=O)(=O)N1CCC(C)CC1
  -2 | -1
> CCCN(CC(=O)N(CCOC)Cc1cccn1C)C(=O)Nc1ccc(F)c(F)c1
  8 | 3

Value order: NPYLR7 ag | NPYLR7 ag max-min
> C=CCNC(=O)N1C[C@H](C(=O)NC)[C@H]2c3ccccc3N(CC(=O)N(C)C)C(=O)[C@]21C
  5 | 11
> CC(C)/C=C/C(=O)N1CCC(CO)(Cc2ccccc2Cl)CC1
  3&-3 | -1&-5
> Cc1cc(C)c(C(=O)NCC(C)(C)CNC(=O)c2oc(C)cc2C)o1
  1 | 18
> Cn1nccc1C(=O)Nc1cc(Cl)ccc1Cl
  -4 | -7
> COc1ccc(-c2nn(-c3ccccc3C)cc2CN(C)CCn2ccnc2C)cc1F
  11 | 1
> CC1CCCN(c2cc(C(=O)NCCC#N)c3ccccc3n2)C1 (centres undefined)
  9 | 2
> O=S(=O)(c1cccnc1)N(Cc1ccsc1)c1cccnc1
  -1 | -1
> CNC(=O)CSc1c(COC)cnc2c1c(=O)n(C)c(=O)n2C
  3 | 8
> CN1CCCN(c2cc(-c3ccccc3Oc3ccccc3)nc3ccnn23)CC1
  -6 | -10
> Cc1cn2c3c(=O)n(CCCc4ccccc4)c(=O)n(C)c3nc2n1CC1CCCO1 (centres undefined)
  9 | 11
> CN(C)c1ccc(Cl)cc1NC(=O)CCl
  3&-7 | -1&-13
> Oc1ccc2oc3c(c2c1C=NCc1ccncc1)CCCC3
  -11 | -22
> O=C(Cc1cc(-c2ccccc2)on1)NC1=NCCS1
  0 | 5
> CC(C)(C)c1ccc(C(=O)N2CCC2(C)C(=O)N2CCCC2)cc1 (centres undefined)
  7 | 5
> CCC(C)N(C)S(=O)(=O)Cc1ccccc1C#N (centres undefined)
  -3 | 341

Value order: NPYLR7 ag | NPYLR7 ag max-min
> O=C(NC(Cn1ccnc1)c1ccccc1)c1cn[nH]n1 (centres undefined)
  2 | -6
> CCOc1nc(-c2cc(OC)c(OC)c(OC)c2)n(S(=O)(=O)c2cccc(C(F)(F)F)c2)n1
  26 | 18
> O=C(CC1NC2CCCCC2NC1=O)Nc1ccccc1 (centres undefined)
  -5 | 11
> COc1ccc(-c2nnc3sc(Cn4cccn4)nn23)cc1
  2 | 2
> O=C(Cc1ccc2c(c1)OCCO2)OCc1nnsc1Cl
  -1 | -1
> Cc1oc(C(C)(C)C)cc1C(=O)N1CCc2ncn3nc(-c4ccco4)nc3c2C1
  4 | 1
> Cc1cc(-n2cncn2)ccc1C(=O)Nc1ccnc(N(C)C)n1
  1 | 0
> Cc1cccc(Oc2ccc(N(Cc3cccnc3)C(=O)NC(C)(C)C)cn2)c1C
  -1 | -1
> C=CCn1c(SCCCC)nc2c1c(=O)n(C)c(=O)n2C
  -4 | -6
> COc1ccc(-n2cc(CNCc3cc(C)n(C)n3)c(-c3cccc(F)c3)n2)cc1
  0&-2 | -3&-5
> C[C@@H](NC(=O)Nc1c(F)c(F)c(F)c(F)c1F)C(=O)N1CCC(C(=O)N2CCCCC2)CC1
  -2 | 2
> CCOC(=O)CCNC(=O)c1ccc(-c2cc(-c3cccc(C(F)(F)F)c3)n[nH]2)cc1
  0 | -3
> CN1CCN(c2nc3c(c(=O)n(C)c(=O)n3C)n2Cc2ccccc2Cl)CC1
  7 | 4
> OCC1(CCOc2ccccc2)CCCN(Cc2cccc3ncccc23)C1 (centres undefined)
  -5 | -13
> CCN(CC)CCN(Cc1ccccc1)C(=O)c1coc(Br)c1
  2 | -3

Shown bar-delimited: 2 of the compounds above
Structure | NPYLR7 ag | NPYLR7 ag max-min
Cc1cn2c3c(=O)n(CCCc4ccccc4)c(=O)n(C)c3nc2n1CC1CCCO1 (centres undefined) | 9 | 11
CN(C)c1ccc(Cl)cc1NC(=O)CCl | 3&-7 | -1&-13

Following part:
Value order: NPYLR7 ag | NPYLR7 ag max-min
> O=C(CSc1nnc(NC(=O)COc2ccc(Cl)cc2Cl)s1)Nc1nccs1
  -7 | -7
> C=CCNC(=O)Cc1cccc(N(Cc2ccc(F)cc2)C(=O)CC(C)C)c1
  3 | 3
> O=S(=O)(c1ccc2ccccc2c1)N1CCCC(c2nc(-c3cccc(Cl)c3)no2)C1 (centres undefined)
  8 | 5
> CC(c1ccccc1)N(C)C(=O)CN1CCCN(S(C)(=O)=O)CC1 (centres undefined)
  -4 | 20
> CCO[C@H]1COC[C@@H]1NC(=O)C(=O)c1ccco1
  -4 | -1
> O=C(Nc1ccccc1)C(NC1CCS(=O)(=O)C1)c1ccccc1 (centres undefined)
  11 | 6
> Cc1ccc(-n2c(SCc3ccccc3F)nnc2-c2ccccc2F)cc1
  2 | 1
> CCCCN(CC(=O)NCC(=O)Nc1ccc(OC)cc1)C(=O)c1ccc(OC)cc1
  5 | 19
> COCCCNc1nc2nonc2nc1N(C)Cc1ccncc1C
  8 | 14
> COc1cc(OC)cc(C(=O)N(c2ccccc2)c2nc(C)cs2)c1
  0 | -2
> O=C(/C=C/c1cccs1)N(Cc1ccccn1)c1nc2c(F)cc(F)cc2s1
  1 | -5
> O=C1C2C(C(=O)N1/N=C\c1ccc(N3CCCCC3)o1)C1C=CC2C12CC2 (centres undefined)
  12 | 8
> CC(C)n1cc(C(=O)NCc2cccnc2N(C)C)cn1
  19 | 9
> CC(C(=O)NC1CCCC1)S(=O)(=O)Cc1cccc2ccccc12 (centres undefined)
  -14 | -18
> CCOC(=O)C1(Cc2cccc(F)c2)CCN(Cc2cc(C)[nH]n2)CC1
  15 | 18

Overlap with the part before: 4 compounds; new compounds follow.
Value order: NPYLR7 ag | NPYLR7 ag max-min
> O=C1C2C(C(=O)N1/N=C\c1ccc(N3CCCCC3)o1)C1C=CC2C12CC2 (centres undefined)
  12 | 8
> CC(C)n1cc(C(=O)NCc2cccnc2N(C)C)cn1
  19 | 9
> CC(C(=O)NC1CCCC1)S(=O)(=O)Cc1cccc2ccccc12 (centres undefined)
  -14 | -18
> CCOC(=O)C1(Cc2cccc(F)c2)CCN(Cc2cc(C)[nH]n2)CC1
  15 | 18
> Cc1[nH]c2ccccc2c1/C=N\N1C(=O)C2C(C1=O)C1C=CC2C12CC2 (centres undefined)
  1 | -1
> Cc1ccc(NC(=O)C(=O)NCCCN(C)C)c(C)c1
  8 | 6
> COc1ccc(/C=C2\C=C(c3ccccc3)N(c3cccc(C(C)=O)c3)C2=O)cc1Br
  0 | 5
> CNC(=O)c1ccc(CN(Cc2csc(C3CCCC3)n2)C2CC2)cc1
  -2 | -4
> O=C(NNC(=O)c1ccco1)NC1CCCCC1
  -1 | -10
> COc1ncccc1C(=O)N1C[C@@H]2[C@H](C1)[C@H]1CC[C@@H]2O1
  8 | 6
> Cc1ccc(-c2nc(N3CCN(S(=O)(=O)c4ccc(F)cc4)CC3)c3ccc(Cl)cc3n2)cc1
  13 | 19
> COc1cccc(-c2cc(C(=O)NCc3ccc4c(c3)OCO4)n3nc(C(C)(C)C)cc3n2)c1
  -10&18 | -4&29
> CC(=O)NCc1ccc(S(=O)(=O)N2CCN(Cc3c(C)noc3C)CC2)cc1
  3 | 2
> CC(C)n1cc(C2c3[nH]c4ccccc4c3CCN2CCCn2cccn2)cn1 (centres undefined)
  -1&-10 | -11&-15
> CCCC(=O)Nc1c(-c2cc(C)cc(C)c2)nc2cc(C)ccn12
  -9 | 1
> O=C(NN=Cc1ccc(O)c(O)c1)C1COc2ccccc2O1 (centres undefined)
  -5 | -12
> Cc1ccc[n+](C2=C(c3c(C(C)C)[nH]n(-c4ccc(F)cc4)c3=O)C(=O)N(C3CCCCC3)C2=O)c1
  4 | 3
> CC1N=C(C(=O)N(C2CCCCC2)C2CC2)NN(c2ccccc2)C1=O (centres undefined)
  -2 | 11
> Cc1cccc2oc(-c3ccc(NC(=O)c4cccs4)cc3Cl)nc12
  30 | 37

Value order: NPYLR7 ag | NPYLR7 ag max-min
> C=CCn1c(=O)c2c(nc3n(C4CCCCC4)c(C)c(C)n23)n(C)c1=O
  9 | 8
> CNc1cc2c(Nc3cccc(Br)c3)ncnc2cn1
  -9 | -14
> O=P1(NCc2ccccn2)C=C(c2ccccc2)SC(c2ccccc2)=C1
  1 | 11
> CCCc1noc(CN2CCN(c3cnn(C)c3)C(=O)C2)n1
  2 | 0
> CN1CCCC2(CCN(C(=O)C3(c4ccccc4F)CC3)C2)C1=O (centres undefined)
  1 | -1
> CCCCc1nc(Cl)c(CN2CCN(C)C(C(=O)O)C2)[nH]1 (centres undefined)
  -4 | -6
> COc1cccc(-c2cc(C(=O)N3CCN(C(=O)c4cccc([N+](=O)[O-])c4)CC3)c(C)n2-c2ccccc2)c1
  0 | 5
> Cc1cc(C(=O)N2CCCC(NC(=O)C(C)C)C2)c2c(C)nn(C)c2n1 (centres undefined)
  -19 | -26
> Cc1ccc(F)c(S(=O)(=O)NC(=O)C2(C)CCN2C(=O)C/C=C/c2ccccc2)c1 (centres undefined)
  2 | -1
> O=C(Cc1cccs1)N[C@H]1[C@H](O)[C@@H]2O[C@H]1c1ccccc12
  4 | 9
> Cc1c(Cl)c(C(F)(F)F)nn1CC(=O)Nc1cc(C(F)(F)F)ccc1Cl
  0 | -5
> CCCc1nnc(-c2cc3ccccc3n2CC(=O)Nc2ccc(C(F)(F)F)cc2)o1
  -8 | -2
> CC(=O)Nc1ccc(F)c(C(=O)N2c3ccccc3OCC2C)c1 (centres undefined)
  5 | 2
> COc1ccccc1C(C)NC(=O)c1n[nH]c(=O)c2ccccc12 (centres undefined)
  12 | 13
> Cc1cccn2c(CC(=O)N(C)C(C)c3nccs3)cnc12 (centres undefined)
  0&11 | -1&9

Value order: NPYLR7 ag | NPYLR7 ag max-min
> COc1cc2c(cc1-c1nccn1C(C)C)OCCCO2
  1 | -5
> COc1ccc(Cc2nc3ccc(C(=O)NC(C)c4csc(C)n4)cc3o2)cc1 (centres undefined)
  4 | 2
> CCNC(=O)C1(C)CCCCN1Cc1cccc(OC)c1 (centres undefined)
  3 | 2
> CCOP(=O)(Cc1ccc(NS(=O)(=O)c2cc(F)ccc2C)cc1)OCC
  -7 | -12
> CCn1nnnc1SCC(=O)c1cc(C)n(C2CC2)c1C
  9 | 7
> CC(C)CNc1c(Cl)cnn(C)c1=O
  3 | 2
> CC(C)(O)C1CCCN(c2ncc(F)c(N3CCCC3)n2)C1 (centres undefined)
  15 | 10
> Cc1ccccc1CCN1CCC(CN(C(=O)c2nonc2C)C2CCCC2)CC1
  12 | 10
> Cc1cc2nc(-c3ccccc3)c(N3CCN(C(=O)Cc4ccc(F)cc4)CC3)nc2cc1C
  3 | -1
> Cc1nc2sc3c(c2c(=S)[nH]1)CCC3
  0 | 17
> O=C1CCCc2nc3oc4ccccc4c(=O)c3cc21
  0 | -2
> CC(C)n1cnnc1SCC(=O)Nc1cccc2c1C(=O)c1ccccc1C2=O
  12 | 20
